Menin-MLL FL inh – qHTS Assay for Inhibitors Targeting the Menin-MLL Interaction in MLL Related Leukemias: Competition With Fluorescein Labeled MLL-derived Peptide; FP activity change, % at 61.4 µM; AID 1766, 2009; 290,000 tested, under 10 active; Fluorescence polarization, fluorescein-MLL peptide displacement from menin; inconclusive = falling polarisation curve, or a change in total fluorescence; inactive = total fluorescence flat and polarisation flat or rising; no compound was filed as active; the % refers to the polarisation; negative = inhibition;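 note: % of control where 0% means no effect; inhibitors lower the polarisation; unlabelled MLL peptide was the positive control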
ClpP mod – qHTS Assay for Activators of ClpP | ATP-dependent Clp protease proteolytic subunit (Bacillus subtilis (strain 168)), P80244 | purified B. subtilis ClpP, FRET peptide cleavage, 20 min | Potency, µM (series often up to 57.5 µM), inactives show at the highest dose activity change, negative = active | 340,000 compounds, 1.9% hits; active = well fitted falling curve with a large enough effect; inconclusive = small, poorly fitted or top-dose-only effect; inactive = no such curve, though single readings can be large or run the other way; note: potency is the fitted concentration of half-maximal effect; the source files actives as falling curves though it sought activators and does not explain the sign; nearly all actives have a fitted effect of over 65% in size; many hits overshoot -100%
Target sequence (P80244 whole entry, looked up): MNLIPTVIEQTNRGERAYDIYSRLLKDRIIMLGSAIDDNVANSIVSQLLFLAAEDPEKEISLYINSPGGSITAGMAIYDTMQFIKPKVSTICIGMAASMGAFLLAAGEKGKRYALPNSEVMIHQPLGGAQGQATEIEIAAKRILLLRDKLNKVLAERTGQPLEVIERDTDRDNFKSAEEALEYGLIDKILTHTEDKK
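ClpP 10 microg/mL final, pH 8 Tris/KCl buffer with BSA, glycerol, Tween-20; compound pinned in; FRET-FV substrate; RT 20 min; Ex320/Em430; ΔFRET vs ADEP 5.8 microM, DMSO, no enzyme.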
gsp antagonist – qHTS for Antagonists of gsp, the Etiologic Mutation Responsible for Fibrous Dysplasia/McCune-Albright Syndrome: qHTS; gsp-mutant cells, cAMP HTRF, 30 min; control for the full effect not named in the record; AID 624288, 2012; 340,000 compounds, 0.4% hits; Potency, µM (titrated, usually from 76.9 µM), inactives show at the top dose activity change, negative = inhibition, actives largely listed as inhibitors; active = falling curve of any shape with a large fitted effect; inconclusive = falling curve, mostly with a smaller effect; inactive = flat or rising curve; cell line not stated here;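 note: intracellular cAMP measured with PDE inhibitor Ro 20-1724 present during compound exposure; potency is the fitted concentration of half-maximal effect; % is set by controls: 0 for no effect and ±100 for the full control effect; nearly all actives have a fitted effect of over 65% in size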
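Measurement of cellular cAMP by homogeneous time-resolved fluorescence following a 30 min compound exposure at 37C. The PDE inhibitor […] was present throughout; the assay buffer was DPBS with 0.05% BSA and 0.005% Tween 20.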
D2 PAM – Beta-Arrestin HTS for Positive Allosteric Modulators of the Human D2 Dopamine Receptor: Potentiators. DiscoveRx D2 beta-arrestin cells, luminescence, 90 min; 100% = 57 uM dopamine signal. potentiation, % (concentration not given with the values). 360,000 compounds, 0.23% hits. AID 624464, 2012; active = potentiation of 50% or more; inconclusive = 30% to 50%; inactive = 30% or less;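 note: tested on top of an EC20 dose of dopamine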
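PathHunter D2 cells, attached overnight at 37 deg C, received compound in DMSO plus dopamine at EC20 (50 nM final) for 90 min at 37 deg C. Beta-arrestin recruitment was read as luminescence after 1 h with detection reagent at ambient temperature.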
TRPV1 potentiator – HTS Assay for Compounds that Act as Potentiators of the Vanilloid Receptor 1; Transient receptor potential cation channel subfamily V member 1 (Homo sapiens), Q8NER1; TRPV1-expressing cells, Fluo-8 calcium influx, capsaicin EC20 potentiation; host cell line not named in the record; control for the full effect not named in the record; potentiation, % at 8.33 µM; 320,000 compounds, 0.02% hits; AID 540277, 2011; active means potentiation above 80%; inconclusive means 30% to 80%; inactive means below 30%; note: 0% is about no effect
Target sequence (Q8NER1 whole entry, looked up): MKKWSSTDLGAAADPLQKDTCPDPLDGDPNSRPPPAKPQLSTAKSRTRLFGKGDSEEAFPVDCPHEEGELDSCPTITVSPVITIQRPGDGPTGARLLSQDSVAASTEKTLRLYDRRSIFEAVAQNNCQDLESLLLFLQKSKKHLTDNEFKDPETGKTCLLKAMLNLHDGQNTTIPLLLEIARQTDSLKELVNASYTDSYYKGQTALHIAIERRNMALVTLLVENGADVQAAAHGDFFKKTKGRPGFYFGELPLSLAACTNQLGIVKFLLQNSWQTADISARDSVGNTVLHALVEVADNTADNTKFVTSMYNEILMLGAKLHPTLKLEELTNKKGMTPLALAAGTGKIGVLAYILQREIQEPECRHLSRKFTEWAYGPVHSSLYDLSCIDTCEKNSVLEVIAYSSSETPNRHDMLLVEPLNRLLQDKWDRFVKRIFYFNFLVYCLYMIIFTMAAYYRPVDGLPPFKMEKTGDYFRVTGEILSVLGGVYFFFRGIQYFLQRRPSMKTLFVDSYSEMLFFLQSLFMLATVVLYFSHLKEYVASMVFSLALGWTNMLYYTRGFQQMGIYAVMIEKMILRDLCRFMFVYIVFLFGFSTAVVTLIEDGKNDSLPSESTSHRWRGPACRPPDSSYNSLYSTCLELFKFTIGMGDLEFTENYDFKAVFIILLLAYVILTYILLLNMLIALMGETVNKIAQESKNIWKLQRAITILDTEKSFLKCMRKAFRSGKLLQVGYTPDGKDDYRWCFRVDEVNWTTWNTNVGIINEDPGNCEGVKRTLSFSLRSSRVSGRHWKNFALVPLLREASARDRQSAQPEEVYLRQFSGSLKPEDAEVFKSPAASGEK
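TRPV1-expressing cells were cultured overnight at 35.5C and loaded with Fluo-8 calcium dye for 40 to 90 min at room temperature. After a 10 s baseline, compound was added and calcium influx was read kinetically for 3 min (ex 480/em 520 nm).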
gsp ag – qHTS for Agonist of gsp, the Etiologic Mutation Responsible for Fibrous Dysplasia/McCune-Albright Syndrome: qHTS; gsp mutant cells, cAMP HTRF, 30 min; control for the full effect not named in the record; Potency, µM (series often up to 76.9 µM), for the others: top-dose activation (cAMP increase), usual class: activators; 340,000 compounds, 0.13% hits; AID 624287, 2012; active = well fitted activation curve with a large enough effect; inconclusive = small, poorly fitted or top-dose-only effect, or another doubt; inactive = no such curve, though single readings can be large or run the other way; cell line not stated here;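 note: phosphodiesterase inhibitor Ro 20-1724 added with compounds to block cAMP breakdown; potency is the fitted concentration of half-maximal effect; nearly all actives have a fitted effect of over 60% in size; about a fifth of the inactives were tested at one dose only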
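Cells stably selected in G418 were plated at 2000/well, grown 16-24 hr, then given compounds in DMSO with the PDE inhibitor […] (300 uM solution added) for 30 min at 37C; cAMP was read by HTRF.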
Sfp inh – qHTS Assay for Inhibitors of Bacillus subtilis Sfp phosphopantetheinyl transferase (PPTase); Potency, µM, for inactives: max response, negative = inhibition, actives largely listed as inhibitors; AID 1490, 2009; 310,000 compounds, 3.5% hits; Biochemical Sfp PPTase activity, qHTS; 4'-phosphopantetheinyl transferase ffp (Bacillus subtilis), Q9F4F7; active = well fitted inhibition curve with a large enough effect; inconclusive = small, poorly fitted or top-dose-only effect, or another doubt; inactive = no such curve, though single readings can be large or run the other way;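 note: the enzyme is Sfp with the accession as filed and its product quenches rhodamine fluorescence; potency is the fitted concentration of half-maximal effect; 0% = enzyme reaction without inhibitor and -100% = no enzyme wells; top concentration of the series not given in the record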
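Buffer: 50 mM Hepes-Na pH 7.6, 10 mM MgCl2, 0.01% Nonidet P-40, 0.01% BSA. Enzyme 15 nM, pre-exposed to compound 15 min; substrates then added and fluorescence change tracked over 30 min.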
* marks the source's active call; other numbers are inactive results; ? = inconclusive; nt = not tested or not shown; & = joins results of further samples; [ ] = another dose, or the depositor's remark.

SMILES	Menin-MLL FL inh	ClpP mod	gsp antagonist	D2 PAM	TRPV1 potentiator	gsp ag	Sfp inh
COc1ccccc1CNC(=O)c1ccc2c(=O)n(CC3CCCO3)c(=S)[nH]c2c1 (stereo not given)	-1.2	nt	-27%	-2	24	20%[15.4 µM]	19%
COc1ccc(/C=C(\NC(=O)c2ccccc2)C(=O)NCCN2CCOCC2)cc1	0.3	nt	-2%	-6	1	26%	-6%
CC(=O)Nc1cccc(OCc2ccc([N+](=O)[O-])cc2)c1	nt	0.2%	nt	-1	nt	-10%	nt
COC(=O)[C@H](Cc1ccccc1)NC(=O)NCCC1=CCCCC1	1.6	1.7%	1%	1	-2	16%	15%
Cc1cc(F)ccc1NCc1ccccc1[N+](=O)[O-]	1.8	nt	-5%	5	8	2%	2.8µM*
CCOC(=O)c1c(-c2ccccc2)csc1NC(=O)c1cccc(N2C(=O)CCC2=O)c1	-0.7	417%	3%	-6	-2	4%	6%
COc1cc2c(cc1OC)C1(CCCCC1)CN(C)C2	7.3	nt	2%	3	-9	-5%[15.4 µM]	-28%
CC(C(=O)N1CCCC1)N(c1ccc(Cl)cc1)S(C)(=O)=O (stereo not given)	nt	-0.2%	nt	-7	nt	?	nt
Cc1c(S(=O)(=O)NC2CCCCCC2)c(=O)n(C)c(=O)n1C	nt	0.9%	9%	9	10	5%	nt
Nn1c(SCc2ccccc2F)nnc1-c1ccncc1	-2.4	-0.8%	8%	-2	6	-2%[15.4 µM]	-3%
O=C(NCCc1cccnc1)c1cc(COc2ccc(F)cc2Cl)on1	-3.1	0.4%	9%	-13	-25	-11%[15.4 µM]	-1%
NS(=O)(=O)c1ccc(CCNC(=O)[C@@H]2CCCN2S(=O)(=O)c2ccccc2F)cc1	0.1	0.9%	-4%	-8	nt	-20%	10%
CC(C)N(C(=O)CO/N=C/c1cccc([N+](=O)[O-])c1)C(C)C	0.9	-3.9%	-3%	8	-4	0%	-4%
COc1ccc(/C=C(/NC(=O)c2ccco2)C(=O)Nc2ccc(C(=O)O)cc2)cc1	3.5	nt	6%	-9	3	-6%[15.4 µM]	18%
O=C(Nc1nccs1)C1CCN(S(=O)(=O)c2cnc[nH]2)CC1	-1.0	-0.4%	-1%	-6	-11	16%	12%
Cc1csc(=O)n1CCC(=O)OCC(=O)NCc1ccc(F)cc1	nt	-1.7%	1%	20	-6	-8%	nt
CN(CC(=O)Nc1ccccc1Cl)CC(=O)Nc1ccccc1[N+](=O)[O-]	-0.4	0.4%	-8%	0	-2	-1%[15.4 µM]	9%
O=C(O)CCC(=O)Nc1cccc(C(=O)Nc2cccc(Cl)c2)c1	8.3	-1.2%	-2%	9	14	?	18%
O=C(c1ccc2c(c1)OCO2)N1CCN(CCN2C(=O)c3cccc4cccc(c34)C2=O)CC1	nt	nt	9%	1	nt	11%[15.4 µM]	nt
O=c1ccn([C@@H]2O[C@H](CNS(=O)(=O)c3csc(-c4ccno4)c3)[C@@H](O)[C@H]2O)c(=O)[nH]1	nt	-0.1%	3%	1	nt	nt	nt
CC1CC2=C(C(=O)O1)C(C)Nc1ccccc1N2 (stereo not given)	0.0	0.7%	4%	-25	-1	13%	20%
O=C(Nc1c2c(nn1-c1ccc([N+](=O)[O-])cc1)CS(=O)(=O)C2)c1cccs1	-4.6	3.0%	-13%	-19	-3	6%	9%
NS(=O)(=O)c1ccc(CNC(=O)CCSCCC(=O)NCc2ccc(S(N)(=O)=O)cc2)cc1	1.2	nt	6%	-7	-5	1%[15.4 µM]	-27%
CCN(CC)c1ccc(NC(=O)c2cccc(F)c2)c(C)c1	-1.3	0.4%	-3%	-6	-8	-11%	9%
CC(C)N(C(=O)C[n+]1ccsc1N)c1ccccc1	-1.2	nt	6%	-4	-1	-17%[15.4 µM]	-7%

The last 6 entries of the section before open the next one:
SMILES	Menin-MLL FL inh	ClpP mod	gsp antagonist	D2 PAM	TRPV1 potentiator	gsp ag	Sfp inh
O=c1ccn([C@@H]2O[C@H](CNS(=O)(=O)c3csc(-c4ccno4)c3)[C@@H](O)[C@H]2O)c(=O)[nH]1	nt	-0.1%	3%	1	nt	nt	nt
CC1CC2=C(C(=O)O1)C(C)Nc1ccccc1N2 (stereo not given)	0.0	0.7%	4%	-25	-1	13%	20%
O=C(Nc1c2c(nn1-c1ccc([N+](=O)[O-])cc1)CS(=O)(=O)C2)c1cccs1	-4.6	3.0%	-13%	-19	-3	6%	9%
NS(=O)(=O)c1ccc(CNC(=O)CCSCCC(=O)NCc2ccc(S(N)(=O)=O)cc2)cc1	1.2	nt	6%	-7	-5	1%[15.4 µM]	-27%
CCN(CC)c1ccc(NC(=O)c2cccc(F)c2)c(C)c1	-1.3	0.4%	-3%	-6	-8	-11%	9%
CC(C)N(C(=O)C[n+]1ccsc1N)c1ccccc1	-1.2	nt	6%	-4	-1	-17%[15.4 µM]	-7%
O=S(=O)(NC1CCCCCC1)c1cccc(Cl)c1	nt	nt	-3%	-8	nt	15%	nt
O=S(=O)(NCCC1=CCCCC1)c1ccc(F)cc1	-1.8	-0.1%	2%	-2	-20	14%	15%
COc1cccc(C2NC(=O)NC(C)=C2C(=O)OCC2CCCCC2)c1 (stereo not given)	3.1	-3.4%	0%	-3	1	-34%[inhibitor]	7%
Cc1cccc(COCC(Cc2ccccc2)N2CCN(C(=O)c3cccc(C)c3)CCC2=O)c1 (stereo not given)	-1.2	1.9%	-11%	-36	-6	nt	-16%
CCN(C(=O)COc1ccccc1)C1CCCCC1	0.1	-3.2%	5%	-21	7	1%	-3%
Cc1ccc(Cn2nnnc2CN2CCC(c3nc4ccc(Cl)cc4[nH]3)CC2)cc1	3.1	-2.1%	?	-25	7	-6%	28%
O=C1CCC(C(=O)N2CCC(CO)CC2)CN1Cc1ccc(Cl)cc1 (stereo not given)	nt	0.5%	3%	-3	-1	-3%[15.4 µM]	-1%
CCOC(=O)[C@@H]1[C@H]2COc3ccccc3[C@@H]2N2C(=O)N(c3cccc(C)c3)C(=O)[C@]12C	-0.7	0.5%	-4%	-34	-22	nt	10%
CCOC(=O)c1[nH]c(C)c(CCC(=O)O)c1C	0.7&0.9	-4.3%&3.2%	-8%&1%	?	11&-6	-14%&-17%	-1%&1%
CCN(CC)S(=O)(=O)c1ccc(C)c(NC(=O)COc2ccc(Br)cc2Cl)c1	0.9	-0.4%	11%	7	3	0%	12%
Cc1cc(NC(=O)CCC(=O)N(CC(=O)NCC2CCCO2)c2ccccc2C)no1 (stereo not given)	1.6	-1.4%	15%	6	-12	5%	19%
COc1ccc(C2=NOC(C(=O)N3CCN(C(=O)c4ccco4)CC3)C2)cc1OC (stereo not given)	-4.9	-5.4%	6%	-2	-9	12%	1%
O=c1cc(NS(=O)(=O)c2ccccc2)nc(SCc2ccc(Cl)cc2)[nH]1	5.6	-1.2%	-20%	1	4	-13%	6%
NC1=NC[C@H](CC2CCCCC2)N1CCc1cc(C(F)(F)F)cc(C(F)(F)F)c1	2.3	-7.1%	6%	-15	-47	?	-4%
CCN(CC)S(=O)(=O)c1ccc(N2CCCC2)c(NC(=O)C2=NN(c3ccccc3)C(=O)CC2)c1	nt	-2.1%	-22%	-2	5	30%	nt
COc1cccc(C(CNC(=O)c2ccc(Cl)c(S(=O)(=O)N3CCCC3)c2)N(C)C)c1 (stereo not given)	nt	1.1%	7%	-39	nt	-1%[15.4 µM]	nt
CCn1nc(C)cc1C(=O)N1CCCC(N2CCN(c3ccccc3OC)CC2)C1 (stereo not given)	nt	1.1%	-12%	-39	nt	-5%	nt
Cc1cc(C(=O)CN2C(=O)NC3(CCCCC3)C2=O)c(C)n1C	-2.0	-1.7%	-5%	-6	2	15%	-1%
CC(=O)Nc1ccc(S(=O)(=O)NNC(=O)CCC(=O)NCc2ccccc2)cc1	nt	1.7%	18%	-3	nt	-46%[inhibitor]	nt
CC1C2C(c3ccccc3)N(C)C(=O)N(C)C2N(C)C(=O)N1C (stereo not given)	?	?	0%[15.4 µM]	-4	9	21%	11%
COc1ccc(C(=O)NNC(=O)c2ccncc2)cc1	1.0	-8.2%	5%	0	-6	14%	-2%
CC(=O)Nc1ccc(C2(c3ccc(NC(C)=O)cc3)NC(=O)c3ccccc32)cc1	4.0	-0.6%	-4%	0	-8	-4%[15.4 µM]	1%
O=C(Nc1cc(Cl)ccc1N1CCCCC1)c1cccs1	-5.3	?	-12%	24	3	-4%	?
O=C(Nc1cc(S(=O)(=O)N2CCOCC2)ccc1N1CCCC1)C1COc2ccccc2O1 (stereo not given)	5.9	-2.0%	?	1	10	-10%	-15%
Cc1ccc2c(c1)CCO[C@@]21O[C@H](CCO)C[C@H](O)[C@H]1O	nt	1.1%	nt	2	nt	?	nt
COC(=O)COc1ccc2c(=O)c(Oc3ccccc3)c(C)oc2c1	-1.7	-1.9%	-25%	-10	-25	?	9%
CCOc1nc(NC(C)C)nc(NC(C)C)n1	51[activator]	-2.9%	16%	-2	-7	-27%	8%
COc1ccc(-c2cc(C(F)(F)F)nc(SCc3cccc(C(=O)O)c3)n2)cc1	2.8	?	-27%	-6	-6	-24%	15%
CCc1noc(C)c1C(=O)Nc1sc(C(=O)N(C)C)c(C)c1C#N	nt	-1.4%	-14%	-22	nt	28%	nt
Cc1cc(S(=O)(=O)NCc2ccco2)c(C)cc1Cl	nt	0.8%	16%	-18	-1	-35%	1%

Assay outcomes from PubChem.
